Sa helicase inh: inhibitors of S. aureus replicative helicase, primary screen, biochemical, fluorescence unwinding readout | inhibition, %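 (tested at about 80 µM)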 | replicative DNA helicase (DnaC/DnaB), Staphylococcus aureus | purified S. aureus helicase, fluorescence unwinding assay; about half of the hits fall short of the stated cut | actives 0.05% (n = 120,000);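 active = both duplicates at 50% or more, or one of them with a favoured structure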;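 also: 0% = mean of negative control wells and 100% = mean of positive control wells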
MgrA-DNA mod: S. aureus MgrA activity modulators, primary screen, biochemical, S. aureus Newman, fluorescence polarization; MgrA-DNA binding; inhibition, %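 (about 10 µg/mL by stock and volumes)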; actives 0.13% (n = 84,000); AID 602314, 2012;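 active = above 50% in either of two replicates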;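 also: 0% = protein plus DNA without compound and 100% = DNA alone without protein; higher means less MgrA bound to DNA so lower polarization; one replicate is shown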
An asterisk follows results filed as active; · = no result given; & = joins results of further samples. This is a subset; count on the stated rates, not on these rows.

SMILES	Sa helicase inh	MgrA-DNA mod
NC(=O)C(Cc1ccccc1)NC(=O)c1ccccc1SCc1ccc(F)cc1 (stereo unspecified)	8.0	·
Cc1ccc(C(=O)NCc2ccc(-c3nc4ncccc4o3)cc2)cc1	-1.0	-1.8
N#CCN(CC#N)C(=O)c1cc(Cl)ccc1Cl	9.0	2.6
CCC(=O)Nc1nnc(SCc2ccc(C(F)(F)F)cc2)s1	-20.0	·
Cc1ccc2nc(-c3c(F)cccc3Cl)oc(=O)c2c1	·	-2.9
O=c1c(-c2ccc(Br)cc2)coc2cc(O)cc(O)c12	7.0	·
CN(C)C(=O)Oc1nnc(SCC(=O)c2ccc3c(c2)OCCO3)n1C1Cc2ccccc2C1	·	-0.3
N#CC1=C(N)OC2=C(C(=O)CCC2)C12C(=O)Nc1ccc(F)cc12 (stereo unspecified)	7.0	-0.4
O=C(O)c1cc2c(cc1NC(=O)C1CCCC1)OCCCO2	-2.0	·
OCCN1CN=C(SCc2ccc(Cl)c(Cl)c2)NC1	·	-1.5
NC(C(=O)O)c1ccccc1F (stereo unspecified)	·	-0.6
C#CCSc1ncc(-c2ccc(Cl)cc2)n1C	-17.0	·
CCOC(=O)c1c(-c2c(Cl)cccc2Cl)noc1C	·	-0.3
CC(=O)NC1[C@@H](O)OC(CO)[C@@H](O)[C@H]1O[C@H](C)C(=O)O (stereo partly specified)	·	-4.0
CN(C)c1nn(C(=S)Nc2ccccc2)cc1-c1ccccc1	·	0.6
O=C(O)C1CCCN1C(=O)c1cccnc1 (stereo unspecified)	12.0	-0.8
CCN(CC(=O)NCc1ccc(F)cc1)C(=O)c1cc(S(=O)(=O)N2CCOCC2)ccc1Cl	8.0	·
CCCCOc1ccc(C(=O)N=c2sccn2C)cc1OC	6.0	·
Cc1cc(C)cc(CC2CC(=O)N(CC(=O)O)C2=O)c1 (stereo unspecified)	6.0	-0.6
CCn1c(SCc2cc(=O)n3cc(C)ccc3n2)nc2ccccc21	3.0	·
CCc1cccc(NC(=O)c2cc3cc4ccc(OC)cc4nc3o2)c1	-9.0	1.2
C#CCOc1c(Cl)cc(CNCC2CN(CC(C)C)CCO2)cc1OC (stereo unspecified)	-7.0	·
N#CCSc1ccccc1NC(=O)CN1C(=O)C2CC=CCC2C1=O (stereo unspecified)	-107.0	·
Cc1cc(NS(=O)(=O)c2ccc(NC(=O)Nc3ccc(OC(F)(F)F)cc3)cc2)no1	·	1.5
CCC(CC)C(=O)Nc1cccc(C(=O)N2CCCC2)c1	9.0	2.1

Record cards, as listed above. Order of screens: Sa helicase inh, MgrA-DNA mod
Cc1cc(NS(=O)(=O)c2ccc(NC(=O)Nc3ccc(OC(F)(F)F)cc3)cc2)no1 in the list: ·, 1.5
CCN(CC(=O)NCc1ccc(F)cc1)C(=O)c1cc(S(=O)(=O)N2CCOCC2)ccc1Cl in the list: 8.0, ·

(list continues)
SMILES	Sa helicase inh	MgrA-DNA mod
CC(=O)NCCc1cc2ccc(C)cc2[nH]c1=O	-14.0	·
COc1ccc(N2CCN(CC(=O)c3ccc(OC)c(OC)c3)CC2)cc1	0.0	-3.2
COC(=O)c1ccc(NC(=O)Nc2ccc3c(c2)nc(C)n3C)cc1	4.0	-2.6
CCCCN(C)C(=O)c1nn(C)c2c1CSc1ccccc1-2	6.0	3.1
CS(=O)(=O)Nc1ccc2[nH]cc(C#N)c2c1	·	-0.1
O=C(COc1ccc2ccccc2c1)NS(=O)(=O)c1ccccc1	6.0	2.6
COc1ccc2[nH]c(=O)c(CN(Cc3ccco3)C(=S)NCc3ccco3)cc2c1	5.0	-1.9
O=C(NCc1cccs1)c1cc(NS(=O)(=O)c2ccc(F)cc2)ccn1	-12.0	·
CCCc1c(C(=O)OCC)[nH]c2c1C(=O)CC(c1ccccc1)C2 (stereo unspecified)	8.0	3.2
C(=N\c1n[nH]c(/N=C/c2ccccc2)n1)/c1ccccc1	-7.0	-5.2
O=S(=O)(c1ccc(NCc2nc3ccccc3[nH]2)nc1)N1CCCC1	0.0	·
O=C(NS(=O)(=O)c1ccc(Cl)cc1)C1CC1	8.0	·
Cc1ccc(-c2nc3scc(CCNC(=O)Cc4ccccc4)n3n2)cc1	8.0	·
Cc1ccc(CC(C#N)Sc2nnc(COc3ccccc3Cl)n2C)cc1 (stereo unspecified)	-10.0	·
CON(C)C(=O)c1sc2ccccc2c1Cl	5.0	0.6
CCSc1sc(C(=O)OC)c(-c2ccc(Cl)cc2)c1C#N	·	-1.7
O=C(CC1S/C(=N/N=C/c2ccco2)NC1=O)Nc1ccc(Cl)cc1 (stereo unspecified)	7.0	·
COc1ccc(CCNC(=S)Nc2ccc(N3CCOCC3)c3nonc23)cc1OC	5.0	0.6
O=c1[nH]nc(-c2cccs2)cc1Cc1ccsc1	-11.0	·
O=C(O)Cn1c2c(c3cc(F)ccc31)CCCC2	-3.0	0.0
N#Cc1nc(-c2ccccc2)oc1NN	-17.0	·
CCn1c(Sc2c(C)c3cc4c(cc3[nH]c2=O)OCO4)nnc1-c1ccccc1	9.0	·
NC(=O)c1ccc(OCc2cc3c(cc2Br)OCCO3)cc1	-16.0	·
C/C(=N\OC(=O)c1ccc(Cl)cc1)c1ccn(S(=O)(=O)c2ccccc2)c1	·	-0.1
COc1ccc(/C=C/C(=O)NCCSc2c[nH]c3ccccc23)cc1OC	-12.0	·
Additional structures:
SMILES	Sa helicase inh	MgrA-DNA mod
COc1ccccc1N(CC(=O)NC1CCCCC1)C(=O)c1csnn1	1.0	1.5
Nc1c(C(=O)O)noc1C(=O)c1ccccc1	5.0	·
CCc1ccccc1OCCCN(CC)CC	-6.0	·
CC1=C(C#N)S(=O)(=O)C(C#N)C(c2cccc(C(F)(F)F)c2)C1 (stereo unspecified)	·	-2.5
CC(Sc1ccc2c(c1)OCCO2)C(=O)Nc1ccccc1C#N (stereo unspecified)	-13.0	·
CN(C)c1ccc(-c2nnn(CC(=O)N(C)C3CCCCC3)n2)cc1	9.0	-0.5
Brc1cc2c(cc1COc1ccc(-c3nn[nH]n3)cc1)OCO2	25.0	-1.6
CCC(CC)c1nc2ccccc2[nH]1	-10.0	·
COc1ccc(CC(N)C(=O)N[C@H]2[C@@H](O)[C@H](n3cnc4c(N(C)C)ncnc43)O[C@@H]2CO)cc1 (stereo partly specified)	·	0.3
O=C(CCC(=O)c1ccccc1)Nc1nccs1	9.0	·
CC(C)(C#N)N1CCOCC1	-8.0	·
Cc1cc(N=Cc2ccc3ncccc3c2)ccc1Br	-16.0	0.1
O=C(Nc1cccc(C(=O)N2CCN(C(=O)c3ccco3)CC2)c1)c1ccccc1	5.0	-1.5
N#Cc1ncoc1-c1cccc(C(F)(F)F)c1	·	0.8
Cc1csc(NC(=O)NC(C)(C)C)n1	13.0	1.6
O=C(OC(C(=O)Nc1ccc(Cl)cc1C(F)(F)F)c1ccccc1)c1ccncc1 (stereo unspecified)	-21.0	-1.8
O=S1(=O)N=S(c2ccccc2)c2ccccc21 (stereo unspecified)	·	1.5
Nc1ccccc1N1CCN(C(=O)c2ccccc2)CC1	-7.0	-2.7
CSC1=NCCCN1C(=O)c1ccccc1I	·	4.9
Cc1nc(SCC(=O)NC2CCCC2)[nH]c(=O)c1Cc1ccccc1	-15.0	·
O=C1C=C(N2CCCCC2)C2(CCCCC2)O1	-13.0	0.7
CC1COC(CC(C)c2ccccc2)O1 (stereo unspecified)	-15.0	·
CCC(CO)NC(=O)c1cc2c(n(-c3ccccc3)c1=O)CC(C)(C)CC2=O (stereo unspecified)	18.0	·
Cc1cc(C)n2c(Nc3cccc(C(F)(F)F)c3)c(-c3ccc(O)cc3)nc2n1	5.0	0.6
Cc1ccccc1CN1C(=O)/C(=C\c2ccc(C(=O)N3CCOCC3)cc2)Sc2ccccc21	2.0	-0.5

Molecules above containing bromine:
SMILES	Sa helicase inh	MgrA-DNA mod
O=c1c(-c2ccc(Br)cc2)coc2cc(O)cc(O)c12	7.0	·
NC(=O)c1ccc(OCc2cc3c(cc2Br)OCCO3)cc1	-16.0	·
Brc1cc2c(cc1COc1ccc(-c3nn[nH]n3)cc1)OCO2	25.0	-1.6
Cc1cc(N=Cc2ccc3ncccc3c2)ccc1Br	-16.0	0.1

(further entries)
SMILES	Sa helicase inh	MgrA-DNA mod
Cc1noc(/C=C/N(C)C)c1S(=O)(=O)N(C)c1ccc(C(C)C)cc1	4.0	0.5
Cc1cc(NC(=O)COC(=O)C2CCN(S(=O)(=O)c3ccc(C(C)C)cc3)CC2)no1	10.0	·
O=C(Nn1c(-c2ccc(Br)cc2)nc2ccccc2c1=O)c1ccc([N+](=O)[O-])cc1Cl	·	-0.7
O=C(O)CSc1nc2ccc(C(=O)c3ccccc3)cc2[nH]1	11.0	-1.7
CCC(Sc1nc2nccnc2c(=O)n1Cc1ccccc1)C(=O)NC1CCCCC1 (stereo unspecified)	-13.0	·
O=C(NCc1ccccn1)C1CC(c2cccc(Br)c2)=NO1 (stereo unspecified)	24.0	·
Nc1oncc1-c1ccccn1	·	3.5
Cc1cc(C)cc(NC(=O)Cn2cnc3c(nnn3Cc3ccc(F)cc3)c2=O)c1	-15.0	·
O=C(O)CSc1ccc2ccccc2n1	20.0	·
O=C(c1ccccc1)c1cnn(-c2ccc(Cl)cc2)n1	·	-0.8
CC1Cc2cc(S(=O)(=O)N(C)CC(=O)NCc3ccccc3)ccc2N1C(=O)C1CC1 (stereo unspecified)	8.0	1.6
CC1=NN(c2c(Cl)cc(Cl)cc2Cl)C(=O)C1	·	-2.3
CC(=O)Oc1cccc(/C=C2\Sc3ccccc3C2=O)c1	-5.0	-0.1
CCc1ccc(Oc2coc3cc(OC(=O)C4CCCCC4)ccc3c2=O)cc1	4.0	-4.3
COc1cc2cc(C)c(=S)[nH]c2cc1OC	7.0	-2.0
O=c1c2c(nc3c(-c4ccccc4)c[nH]n13)CCC2	18.0	·
Cc1nc(N2CCCC2=O)sc1C(=O)O	17.0	·
CCCOC(=O)CSC1=C(C#N)C(c2ccccc2)CC(=O)N1 (stereo unspecified)	14.0	·
CCN(Cc1cc(=O)n2oc(C)cc2n1)c1ccc(Cl)cc1	1.0	·
COc1ccc(N2CCN(C(=O)NC(=O)c3ccccc3)CC2)cc1	-24.0	·
COc1ccc(C2C(C#N)=C(N)OC3=C2C(=O)CC(C)(C)C3)cc1COc1ccccc1Br (stereo unspecified)	·	0.4
O=C(CCN1CCCCC1)NCC1OCCc2ccccc21 (stereo unspecified)	2.0	-2.9
CCc1ccccc1NC(=O)c1cc(-c2ccc(Br)cc2)on1	13.0	·
O=C(O)Cc1c(-c2ccccc2)c2cc(Br)ccc2[nH]c1=O	5.0	·
O=C(Oc1ccc2cc(Br)ccc2c1)c1ccncc1	-9.0	·

Reformatted with values under each structure: part of the list above.
Under each structure – Sa helicase inh	MgrA-DNA mod
> O=C(CCN1CCCCC1)NCC1OCCc2ccccc21 (stereo unspecified)
→ 2.0	-2.9
> CCN(Cc1cc(=O)n2oc(C)cc2n1)c1ccc(Cl)cc1
→ 1.0	·

(further entries)
SMILES	Sa helicase inh	MgrA-DNA mod
Cc1cc(C)c(Cn2cccc2C2=NC(C)CO2)c(C)c1 (stereo unspecified)	30.0	·
CC(NCC(O)COc1ccc2c(c1)CCC2)c1ccccc1 (stereo unspecified)	-21.0	·
O=C1/C(=C/c2ccccc2OC(=O)c2cccnc2Cl)Sc2ccccc21	·	-0.2
CCCCn1c(=N)n(CC(O)COc2ccccc2)c2ccccc21 (stereo unspecified)	6.0	-1.9
O=C(NCCC1=CCCCC1)c1cc(-c2ccco2)[nH]n1	10.0	2.2
CC(=O)Oc1ccc(S(=NS(=O)(=O)c2ccccc2)c2ccc(OC(C)=O)cc2)cc1	10.0	-1.6
O=C1C(SCCO)=C(SCCO)C(=O)c2ccccc21	·	0.0
COc1c2ccoc2nc2c(OC)c(O)ccc12	-1.0	-3.5
CCOC(=O)Cc1csc(NS(=O)(=O)c2ccccc2)n1	·	-0.4
NC(=O)CSc1nc2c([nH]c3ccccc32)c(=O)n1-c1cccc(Cl)c1	7.0	-5.7
O=[N+]([O-])c1ccc(OCCCCOc2ccc([N+](=O)[O-])cc2)cc1	·	4.2
COc1cccc(-c2noc(Cc3ccccc3)n2)c1	-4.0	3.3
O=C(CSCc1ccccc1Cl)Nc1c[nH]c(=O)[nH]c1=O	-10.0	-1.2
CC1=NNC(=O)C1CC(=O)N/N=C/c1ccc(N(C)C)cc1 (stereo unspecified)	39.0	·
Nc1ccc(-c2nc3ccc(N)cc3s2)cc1	17.0	·
CCN(CC)C(=O)Nc1cnc2ccccc2c1	7.0	·
CC1=C(C(=O)OCC(F)(F)C(F)(F)F)C(c2ccc(Cl)c(Cl)c2)NC(=O)N1 (stereo unspecified)	·	-1.4
S=c1[nH]nc(COc2ccccc2)o1	8.0&13.0	6.6&-0.1
COc1cc(NC(=O)CC(C)(C)C)c(OC)cc1Cl	3.0	-0.7
Cc1cc(NC(=O)c2cc(C(C)C)[nH]n2)ccc1Br	10.0	·
CC1SC(c2cccnc2)N(c2cc(C(F)(F)F)cc(C(F)(F)F)c2)C1=O (stereo unspecified)	·	-0.1
O=C(CSc1nc2ccccc2n1CC(=O)N1CCCC1)Nc1ccccc1	-1.0	0.8
CCOC(=O)N1CCN(C(=S)NC(=O)c2cccc(OC)c2)CC1	15.0	·
Cc1ccc2nc(CNc3ccc(Cl)cc3)cc(=O)n2c1	20.0	·
N#Cc1ccc(NC(=O)COC(=O)CCC2CCCCC2)cc1	7.0	·
COC(=O)C1=NN(c2cccc(C(F)(F)F)c2)C(=O)C1	·	-1.7
COc1ccc(N=Cc2c(O)ccc3oc4c(c23)CCCC4)cc1	1.0	4.1
O=C1CSC(N(c2ccccc2)c2ccccc2)=N1	-2.0	1.2
O=C(Cn1c(-c2cccs2)cc2ccccc21)NCC1CCCO1 (stereo unspecified)	-16.0	·
Clc1ccc2nc(-n3nc4ccccc4n3)nc(-c3ccccc3)c2c1	14.0	-2.8

Bioassay records: PubChem BioAssay, ICCB-Longwood Screening Facility, Harvard Medical School
